Cruzain Triton: qHTS Assay for Promiscuous and Specific Inhibitors of Cruzain (with detergent); Potency, µM, without a hit: max response, negative = inhibition, hits mostly inhibitors; actives 0.43% (n = 200,000); purified cruzain, Z-FR-AMC fluorescence, 0.01% Triton; active = well fitted curve in the direction sought with a large enough effect; inconclusive = small, poorly fitted or top-dose-only effect, or another doubt; inactive = no such curve, though single readings can be large; an effect the other way counts as inactive or inconclusive;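 also: plate controls were neutral wells for no effect and buffer without enzyme for full effect; nearly all actives have a fitted effect of over 40% in size; top concentration of the series not given in the record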
Target sequence (P25779 123-467 limits assumed): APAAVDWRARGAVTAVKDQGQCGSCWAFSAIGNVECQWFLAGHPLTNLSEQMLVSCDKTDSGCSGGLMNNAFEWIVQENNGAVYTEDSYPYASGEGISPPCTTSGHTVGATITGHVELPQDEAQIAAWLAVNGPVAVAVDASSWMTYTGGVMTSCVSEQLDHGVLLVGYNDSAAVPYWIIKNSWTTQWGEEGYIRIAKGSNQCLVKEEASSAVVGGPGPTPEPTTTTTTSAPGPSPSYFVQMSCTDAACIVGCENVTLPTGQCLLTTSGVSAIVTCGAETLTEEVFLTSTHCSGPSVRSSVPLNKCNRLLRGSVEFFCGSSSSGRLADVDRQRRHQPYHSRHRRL
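Sodium acetate buffer (100 mM, pH 5.5) containing 5 mM DTT and 0.01% Triton X-100 hosted 1.5 nM cruzain and test compound for 15 min at room temperature. Cleavage of 2 uM Z-FR-AMC was then tracked by fluorescence.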
Lassa entry inh: qHTS for Inhibitors of binding or entry into cells for Lassa Virus | Lassa virus pseudotype entry inhibition, cell reporter; control for the full effect not named in the record | Potency, µM (titrated, usually from 37.9 µM), for the others: at the top dose activity change, negative = inhibition, hits mostly inhibitors | actives 1.2% (n = 300,000); active means well fitted inhibition curve with a large enough effect; inconclusive means small, poorly fitted or top-dose-only effect, or effect the other way; inactive means flat fitted curve, though single readings scatter; tested in HEK293 cells; also: % is scaled to controls: 0 for no effect and ±100 for the full control effect; nearly all actives have a fitted effect of over 50% in size; luciferase read-out
2A StopGo: High Throughput Screening for Foot and Mouth Disease Virus Antivirals; human cells with a luciferase reporter of 2A StopGo recoding; control for the full effect not named in the record; Potency, µM (top dose mostly 57.9 µM), for inactives: at the top dose signal change, negative = less light; actives 1.2% (n = 410,000); active = well fitted falling curve with a large enough effect; inconclusive = small, poorly fitted or top-dose-only effect; inactive = no such curve, though single readings can be large or run the other way; tested in HEK293T cells; also: % is scaled to controls: 0 for no effect and ±100 for the full control effect; nearly all actives have a fitted effect of over 45% in size; luciferase light after 4 h
NS1 inh: qHTS Assay for Inhibitors of Influenza NS1 Protein Function; actives 0.4% (n = 270,000); AID 2326, 2010; Potency, µM (titrated, usually from 46.1 µM), inactives show at the top dose activity, positive = more growth; S. cerevisiae slowed by influenza A NS1, growth recovery by OD600; also: actives are rising curves; nearly all actives have a fitted effect of over 50% in size
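A cell-based growth assay was used: compounds that relieve NS1-induced slow growth of budding yeast raise OD600. Assay medium was yeast nitrogen base with ammonium sulphate and -URA supplement, pH 6.0, with 2% galactose.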
RE007 growth inh: qHTS Assay for Inhibitors of the HIV-1 protein Vpr | S. pombe RE007 Vpr strain, BacTiter-Glo ATP luminescence, 24 h; control for the full effect not named in the record | Potency, µM (highest dose often 92.2 µM), for the others: at the top dose activity change, negative = less growth | actives 0.21% (n = 360,000) | AID 651644, 2012; active = well fitted falling curve with a large enough effect; inconclusive = small, poorly fitted or top-dose-only effect; inactive = no such curve, though single readings can be large or run the other way;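 also: % is scaled to controls: 0 for no effect and ±100 for the full control effect; nearly all actives have a fitted effect of over 50% in size; the assay follows cell death caused by Vpr and the record does not say whether a fall means rescue or toxicity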
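Fission yeast strain RE007, carrying one chromosomally integrated HIV-1 vpr copy, was seeded at OD 0.01 in PMG+AL medium with 23 nL pinned compound. After 24 h at 30 °C and 99% humidity, viability was read by BacTiter-Glo luminescence.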
SARS PLpro yeast: qHTS of Yeast-based Assay for SARS-CoV PLP; S. cerevisiae expressing SARS-CoV PLpro, growth rescue; control for the full effect not named in the record; AID 485353, 2010; Potency, µM (highest dose often 32.9 µM), inactives show top-dose activity, positive = growth rescue; actives 0.19% (n = 330,000); also: 0% is about no effect; nearly all actives have a fitted effect of over 55% in size; growth read by luminescence after 48 h
MARV entry inh: qHTS for inhibitors of binding or entry into cells for Marburg Virus. actives 1.8% (n = 300,000). Marburg virus pseudotyped entry inhibition, cell reporter; control for the full effect not named in the record; about a third of the inactives were read at about 46 µM. Potency, µM (doses to about 37.8 µM), for inactives: at the top dose activity change, negative = inhibition, usual class: inhibitors; active = well fitted inhibition curve with a large enough effect; inconclusive = small, poorly fitted or top-dose-only effect, or effect the other way; inactive = flat fitted curve, though single readings scatter; tested in HEK293 cells; about a fifth of its hits are not listed in these tables; also: % is scaled to controls: 0 for no effect and ±100 for the full control effect; luciferase read-out
Cruzain noTriton: qHTS Assay for Promiscuous and Specific Inhibitors of Cruzain (without detergent); actives 2.3% (n = 200,000); Potency, µM, for the others: max response, negative = inhibition, hits mostly inhibitors; Cruzipain (Trypanosoma cruzi), P25779; purified cruzain, Z-FR-AMC fluorescence, no detergent; active = well fitted curve in the direction sought with a large enough effect; inconclusive = small, poorly fitted or top-dose-only effect, or another doubt; inactive = no such curve, though single readings can be large; an effect the other way counts as inactive or inconclusive;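 also: plate controls were enzyme without inhibitor for no effect and buffer without enzyme for full effect; nearly all actives have a fitted effect of over 40% in size; top concentration of the series not given in the record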
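Purified cruzain at 1.5 nM, pre-incubated 15 min with compound at room temperature in 100 mM sodium acetate pH 5.5, 5 mM DTT, 0.00005% Triton X-100. Reaction started with 2 uM Z-FR-AMC; AMC fluorescence increase over 60 s gives rate.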
Active calls of the source: *; ? = inconclusive; · = no result given; & = joins results of further samples; [ ] = dose if it differs, or a comment. Unless noted, calls follow the shape of the dose curve; as a rule, active means well fitted rising curve with a large enough effect; inconclusive means small, poorly fitted or top-dose-only effect; inactive means no such curve, though single readings can be large or run the other way. Potency is read from the fitted curve at half-maximal effect.

SMILES	Cruzain Triton	Lassa entry inh	2A StopGo	NS1 inh	RE007 growth inh	SARS PLpro yeast	MARV entry inh	Cruzain noTriton
COc1ccc(Cn2c(=O)[nH]c3cc(C(=O)NCc4ccc5c(c4)OCO5)ccc3c2=O)cc1	·	0%	-18%	6%	-11%	·	-17%&-17%[46.1 µM]	·
Cc1ccc(NC(=O)COC(=O)c2ccco2)cc1	·	·	6%	1%	10%	-1%	·	·
CCOC(=O)C1=C(CCc2ccccc2)NC(=O)NC1c1ccc2ccccc2c1 (stereo not given)	·	·	?	12%	-14%	-9%	·	·
Cc1ccc(S(=O)(=O)NCCc2nnc3ccc(SCC(=O)Nc4ccc(F)cc4F)nn23)cc1	-0.9%	-1%[46.1 µM]	5%	·	·	·	·	-8%
CCN(CC(=O)Nc1c(F)cccc1F)C(=O)c1cccc(S(=O)(=O)N2CCc3ccccc3C2)c1	·	-17%	-20%	·	-8%	6%	?	·
Oc1ccc(-c2csc(Nc3ccccn3)n2)cc1O	·	·	15%	?	9%	21%	·	·
CC(Oc1ccccc1F)C(=O)N1CCC(c2nc3ccccc3o2)CC1 (stereo not given)	-4.5%	-28%[46.1 µM]	0%	·	·	·	30%[46.1 µM]	-5%
Cc1ccc(C)c(N2CCN(C3=C(c4ccccc4)C(=O)c4ccccc43)CC2)c1	-6.3%	5%[46.1 µM]	?	·	·	·	0%[46.1 µM]	?
O=C(NCC1CCCO1)c1cnn2c1NC(c1ccccc1)CC2C(F)(F)F (stereo not given)	-1.7%	-2%	8%	?	16%	1%	1%	10%
Cc1ccsc1/C=C1\CCc2ccccc2C1=O	-2.9%	?	-85%	-58%	13µM*	-28%	?	-13%
O=C(NCc1ccccc1Br)c1ccc(-n2cnc3cccnc32)cc1	-8.2%	13%[46.1 µM]	4%	·	·	·	·	3%
COc1ccccc1C(=O)NCC(=O)NCc1cc(=O)n(C)c(=O)n1C	·	·	6%	-12%	12%	2%	·	·
Cc1nn(C)c(Oc2cccc(Cl)c2)c1C=O	1.7%	-17%	4%	-7%	48%	1%	-7%	-4%
COC(=O)C1(C)CC1(c1ccccc1)c1ccccc1 (stereo not given)	·	·	0%	4%	-20%	-1%	·	·
c1ccc(-n2cccc2CNC2CCCCC2)cc1	3.8%	2%	·	-1%	-20%	8%	21µM*	3%

The final 2 compounds of the section above lead into the next.
SMILES	Cruzain Triton	Lassa entry inh	2A StopGo	NS1 inh	RE007 growth inh	SARS PLpro yeast	MARV entry inh	Cruzain noTriton
COC(=O)C1(C)CC1(c1ccccc1)c1ccccc1 (stereo not given)	·	·	0%	4%	-20%	-1%	·	·
c1ccc(-n2cccc2CNC2CCCCC2)cc1	3.8%	2%	·	-1%	-20%	8%	21µM*	3%
Cc1ccc(S(=O)(=O)N2CCCCC2CCNC(=O)C(=O)NCc2ccncc2)cc1 (stereo not given)	·	-28%	-15%	·	-10%	-6%	-10%	·
O=C(O)c1ccc(N=NNc2cccc([N+](=O)[O-])c2)cc1	·	?	-19%	3%	3%	16%	?	·
Cc1ccc(N=Nc2c(O)[nH]c(=O)[nH]c2=O)cc1S(=O)(=O)Nc1ccc(Br)cc1	·	16%[46.1 µM]	47%[activator]	·	-6%	7%	8%[46.1 µM]	·
CN(Cc1ccccc1)C(=O)Cn1c(=O)oc2cc(S(=O)(=O)NCc3ccccc3)ccc21	-6.0%	·	0%	2%	-13%	8%	0%	5%
CN(C(=O)c1ccccn1)c1nnc(-c2ccccn2)s1	2.6%	-7%	-7%	-7%	-11%	-9%	?	-3%
CCOC(=O)c1c(C)oc2c1c(C(c1cccnc1)N1CCCCC1)c(O)c1ccccc12 (stereo not given)	-3.7%	12%	-6%	-9%	-5%	-25%	0%	?
O=S(=O)(c1ccc(Cl)s1)N1CCN(Cc2ccccc2)CC1	1.4%	-12%	-13%	-14%	0%	-1%	9%	2%
Cc1ccc(/C=C2\CCC3=C2OC(N)=C(C#N)C3c2ccc(C)cc2)cc1 (stereo not given)	-12%	-21%	?	20%	-19%	-10%	14%	25µM*
CC(C)[C@H](Nc1ncnc2c1oc1ccccc12)C(=O)O	·	5%	-6%	6%	14%	1%	15%[46.1 µM]	·
CN(C)c1ccc(S(=O)(=O)N(C)C)cc1[N+](=O)[O-]	·	-8%	-3%	7%	1%	1%	-6%[46.1 µM]	·
COc1ccc(CNC(=O)CN2C(=O)c3ccc([N+](=O)[O-])cc3C2=O)cc1	·	12%	5%	0%	-17%	-1%	-4%[46.1 µM]	·
COc1cccc(C(=O)Nc2cccc(OCc3cc(=O)n4c5c(sc4n3)CCCC5)c2)c1	-0.7%	?	23%	·	·	·	4%[46.1 µM]	1%
NC(=S)Nc1cc2ccccc2c2ccccc12	-0.7%	-11%	?	-6%	-9%	26%	-21%	7%
CCOc1cc(CNC2CCCC2)c(Cl)cc1OCC(=O)Nc1ccccc1	·	·	-23%	0%	0%	1%	·	·
Cc1ccc(F)cc1NC(=O)CCc1c(C)nn(-c2ccc(N3CCCC3)nn2)c1C	-1.5%	4%[46.1 µM]	-5%	·	·	·	·	-8%
CC(C)C(=O)Nc1cccc(NC(=S)NC(=O)c2ccc([N+](=O)[O-])cc2)c1	-3.7%	8%	?	2%	-6%	8%	23%	-9%
Cc1cccn2c(=O)c3cc(C(=O)NCc4ccco4)c(=N)n(C4CCCCC4)c3nc12	·	·	?	8%	28%	1%	?	·
O=C(c1ccccc1)c1cc(Cl)ccc1N1C(=O)C=CC1=O	·	-22%[46.1 µM]	?	·	25µM*	-5%	?	·
COc1ccc(-c2nc(SCC(=O)N3CCC(C)CC3)n[nH]2)cc1	1.0%	3.2µM*	-3%	·	·	·	·	8%
C/C(=C\C(=O)c1ccccc1)NNc1nc2ccccc2s1	-3.4%	23%	18%	27%	-9%	-5%	-1%[46.1 µM]	-7%
CCN(CC)S(=O)(=O)c1ccc(N2CCOCC2)c(NC(=O)Cc2ccccc2)c1	-2.1%	0%	-21%	-22%	-5%	14%	-23%	1%
Cc1ncc(CN2CCC(n3nccc3NC(=O)c3ccccc3)CC2)s1	·	-6%	-17%	-6%	11%	1%	9%	·
CC1(C)NC(=O)N(CC(O)CN(Cc2ccccc2)Cc2ccccc2)C1=O (stereo not given)	2.3%	5%	-12%	5%	-6%	0%	?	6%
O=C(O)CSc1nnc(-c2ccccc2)c(-c2ccccc2)n1	·	·	-14%	3%	-9%	-1%	·	·
Cc1ccccc1Cn1cc(NC(=O)c2nc3ncccn3n2)cn1	4.2%	?	50%[activator]	-1%	3%	2%	-4%	1%
O=S(=O)(c1ccc(F)c(F)c1)N1CCN(Cc2ccc3c(c2)OCO3)CC1	-7.7%	-8%	-33%	-21%	12%	?	-7%	-5%
CC(=O)Nc1ccc(NC(=O)c2c(-c3ccccc3)noc2C)cc1	-2.6%	-4%[46.1 µM]	3%	·	·	·	18%[46.1 µM]	-2%
CC(C)(C)OC(=O)N1CCN(C(=O)c2[nH]cnc2C(=O)NCC(=O)OCc2ccccc2)CC1	·	·	-10%	-19%	6%	1%	·	·
O=C1c2ccc([N+](=O)[O-])cc2C(=O)N1c1ccc(Cl)cn1	·	·	-15%	3%	-12%	1%	·	·
Cc1ccc(N2C(=O)N(Cc3ccccc3C)c3ccccc3S2(=O)=O)cc1	-2.8%	?	-12%	10%	16%	-4%	18%	?
CCc1ccc(NC(=O)CSc2c(C)cnc3c2c(=O)n(C)c(=O)n3C)cc1	0.1%	10%[46.1 µM]	?	·	·	·	·	-5%
COc1ccc(NC(=O)CSc2ccc3nnc(-c4cccnc4)n3n2)c(OC)c1	·	·	1%	·	-9%	1%	7%[46.1 µM]	·
O=S(=O)(c1ccc(-c2csc(-c3cccnc3)n2)cc1)N1CCCC1	-13%	24%	-4%	-83%	7%	-16%	1%	-21%
CCOc1ccc(-c2nc(S(=O)(=O)c3ccccc3)c(NC)o2)cc1	·	2%	8%	8%	-6%	-5%	-12%	·
CCN(CC)S(=O)(=O)c1ccc(N2CCN(CCO)CC2)nc1	1.6%	?	1%	-4%	-7%	26%	18%	9%
COc1cc2c(cc1NC(=O)Cn1cnc3c1c(=O)n(C)c(=O)n3C)oc1ccccc12	-6.7%	·	·	-15%	·	10%	1%	?
COc1ccc(CC2C(=O)N(C)C(=O)N(C)C2=O)c(OC)c1	-2.1%	7%	-14%	5%	14%	5%	2%	-28%
COc1cc(C(=O)c2ccc3c(c2)OCO3)cc(OC)c1OC	·	?	-6%	·	-8%	·	?	·
CCOc1ccc(NC(=O)C2CCCCN2S(=O)(=O)c2ccccc2)cc1 (stereo not given)	-1.7%	4%	-22%	-5%	-3%	-3%	-5%	-6%
CC(C)c1ccc(N(C)C(=O)Cc2c(C(=O)O)n(C)c3ccccc23)cc1	·	·	-19%	-36%	1%	-1%	·	·
CCC1=NN2C(=N)/C(=C\c3ccc(OCCOc4ccc(NC(C)=O)cc4)c(OC)c3)C(=O)N=C2S1	·	20%	4%	17%	4%	-1%	8%	·
Cc1cc(C(=O)COC(=O)c2ccc(F)cc2F)c(C)n1C1CC1	·	6%	-29%	·	2%	2%	5%	·
Cc1c(NC(=O)C(C)OC(=O)/C=C/c2ccc(OC(F)F)cc2)c(=O)n(-c2ccccc2)n1C (stereo not given)	·	13%	?	·	-12%	-2%	-3%	·
Cc1nn(CCCC(=O)NCc2ccc(Cl)cc2)c(C)c1[N+](=O)[O-]	-6.5%	14%	-21%	-5%	1%	2%	?	-9%
CC(=O)c1sc(NCc2ccccc2)nc1C	·	?	26%	-5%	9%	-4%	16%[46.1 µM]	·

Compound activity as filed in PubChem.
